Screening data: PubChem BioAssay, National Center for Advancing Translational Sciences (NCATS)
TRPML1 blocker: inhibitors of human TRPML1 channel | Q9GZU1 | TRPML1-inducible cells, Ca2+ dye fluorescence, FDSS; stronger effect = lower value; inhibition of EC80 agonist-evoked calcium signal | activity change, negative = inhibition, % (concentration not given with the values) | 0.02% of 390,000 active; in the data active means activity change below about -50%; inconclusive means about -30% to -50%; inactive means above about -30%;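 also: stimulus is agonist 54-4 at its EC80 concentration; % is scaled to controls: 0 for no effect and ±100 for the full control effect; compound concentration not given in the record; the text of the record puts the active cut at -80%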
Target sequence (Q9GZU1 whole entry, looked up): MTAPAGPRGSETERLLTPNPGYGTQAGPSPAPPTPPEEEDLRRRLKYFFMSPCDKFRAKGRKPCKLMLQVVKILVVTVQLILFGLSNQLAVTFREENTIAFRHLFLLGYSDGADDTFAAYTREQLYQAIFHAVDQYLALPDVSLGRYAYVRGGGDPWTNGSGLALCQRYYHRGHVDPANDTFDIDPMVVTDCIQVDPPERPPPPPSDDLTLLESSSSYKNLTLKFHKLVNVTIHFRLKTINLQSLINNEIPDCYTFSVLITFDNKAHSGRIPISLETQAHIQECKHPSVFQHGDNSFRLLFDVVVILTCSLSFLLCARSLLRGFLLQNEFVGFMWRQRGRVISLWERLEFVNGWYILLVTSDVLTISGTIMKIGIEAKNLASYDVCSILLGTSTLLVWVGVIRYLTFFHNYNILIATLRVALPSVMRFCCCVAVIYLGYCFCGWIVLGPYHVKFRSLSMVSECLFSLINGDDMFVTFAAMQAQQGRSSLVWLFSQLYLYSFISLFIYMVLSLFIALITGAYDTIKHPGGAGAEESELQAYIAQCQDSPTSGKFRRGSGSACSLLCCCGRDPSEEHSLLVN
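Tet-induced TRPML1-DL cells loaded with Ca8 no-wash calcium dye were read kinetically on FDSS. Compound addition was followed by EC80 agonist 54-4 (4 uM final); inhibition was read over 110 s.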
Menin MLL FP FL: inhibitors of human menin-MLL interaction, wild-type MLL peptide; FP activity change, % at 61.4 µM; Fluorescence polarization, fluorescein-MLL peptide displacement from menin; 290,000 tested, under 10 active; AID 1766; inconclusive = falling polarisation curve, or a change in total fluorescence; inactive = total fluorescence flat and polarisation flat or rising; no compound was filed as active; the % refers to the polarisation; negative = inhibition;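 also: % of control where 0% means no effect; inhibitors lower the polarisation; unlabelled MLL peptide was the positive control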
ClpP mod: qHTS Assay for Activators of ClpP. 1.9% of 340,000 active. purified B. subtilis ClpP, FRET peptide cleavage, 20 min. Potency, µM (highest dose often 57.5 µM), inactives show top-dose activity change, negative = active; active = well fitted falling curve with a large enough effect; inconclusive = small, poorly fitted or top-dose-only effect; inactive = no such curve, though single readings can be large or run the other way; also: potency is read from the fitted curve at half-maximal effect; the source files actives as falling curves though it sought activators and does not explain the sign; nearly all actives have a fitted effect of over 65% in size; many hits overshoot -100%
Target sequence (P80244 whole entry, looked up): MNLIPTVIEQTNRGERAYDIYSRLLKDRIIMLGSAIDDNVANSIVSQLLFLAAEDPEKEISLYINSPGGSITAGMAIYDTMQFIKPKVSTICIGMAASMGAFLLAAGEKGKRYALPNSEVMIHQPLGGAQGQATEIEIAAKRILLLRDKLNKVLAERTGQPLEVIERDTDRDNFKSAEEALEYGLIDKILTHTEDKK
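FRET quenching reversal measured ClpP activation: 10 microg/mL B. subtilis ClpP at pH 8 with the FRET-FV decapeptide, read at 430 nm after 320 nm excitation. The 20-min minus 0-min signal was scaled between DMSO/no-enzyme wells and ADEP (5.8 microM final).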
Sfp PPTase inh: Sfp phosphopantetheinyl transferase inhibition. AID 1490. Biochemical Sfp PPTase activity, qHTS. Potency, µM, for inactives: max response, negative = inhibition, most hits filed as inhibitors. Q9F4F7. 3.5% of 310,000 active; active = well fitted inhibition curve with a large enough effect; inconclusive = small, poorly fitted or top-dose-only effect, or another doubt; inactive = no such curve, though single readings can be large or run the other way;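 also: the enzyme is Sfp with the accession as filed and its product quenches rhodamine fluorescence; potency is read from the fitted curve at half-maximal effect; 0% = enzyme reaction without inhibitor and -100% = no enzyme wells; top concentration of the series not given in the record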
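Sfp 15 nM + cpd, 15 min RT; start w/ rhodamine-CoA 5 uM, BHQ-2-YbbR 12.5 uM (final); 50 mM Hepes pH 7.6, 10 mM MgCl2, 0.01% NP-40, 0.01% BSA; read 525/598 nm at 0 and 30 min.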
PINK1 modulator: changes PINK1 expression; PINK1 immunofluorescence, high-content cytometry, 24 h; Potency, µM (doses to about 76.6 µM), inactives show at the highest dose activation (PINK1 increase), usual class: activators; 0.2% of 410,000 active; AID 624263; active = well fitted activation curve with a large enough effect; inconclusive = small, poorly fitted or top-dose-only effect; inactive = flat fitted curve, though single readings scatter; cell line not stated here;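 also: potency is read from the fitted curve at half-maximal effect; % of control where 0% means no effect; nearly all actives have a fitted effect of over 65% in size; a mitochondrial uncoupler was the plate control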
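PINK1 protein, normally rapidly degraded, was detected by immunofluorescence after 24 hour compound treatment of a stable cell line. Titration data (5 concentrations) came from laser-scanning cytometry, with CCCP-treated wells as controls.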
TRPV1 potentiator: enhances activation of the human vanilloid receptor TRPV1 | Q8NER1 | TRPV1-expressing cells, Fluo-8 calcium influx, capsaicin EC20 potentiation; host cell line not named in the record; control for the full effect not named in the record | potentiation, % at 8.33 µM | 0.02% of 320,000 active | AID 540277; active means potentiation above 80%; inconclusive means 30% to 80%; inactive means below 30%; also: 0% is about no effect
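Cells expressing TRPV1 were dye-loaded with Fluo-8 and read kinetically: 10 s baseline, 3 min after compound (agonist portion), then 2 min after EC20 capsaicin (allosteric enhancer portion). Calcium-bound dye fluorescence at 480/520 nm.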
TRPML1 ag: human mucolipin-1 channel agonism. Q9GZU1. TRPML1-expressing cells, Ca2+ dye fluorescence, FDSS; host cell line not named in the record; reference of the full effect not given here. activation, % (concentration not given with the values). 0.12% of 410,000 active. AID 624414; in the data active = activation above about 50%; inconclusive = about 30% to 50%; inactive = below about 30%; also: 0% is about no effect; the text of the record puts the active cut at 80%
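Agonist activity was taken from a 110 s kinetic Ca2+ dye read on the FDSS after pinning compounds onto TRPML1-DL cells. The cells were seeded at 1,500/well with Tet inducer, incubated about 16 h, then dye-loaded at room temperature.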
* marks the source's active call; other numbers are inactive results; ? = inconclusive; . = no result given; & = joins results of further samples; [ ] = dose if it differs, or a comment.

cpd	SMILES	TRPV1 potentiator	TRPML1 blocker	PINK1 modulator	Menin MLL FP FL	Sfp PPTase inh	TRPML1 ag	ClpP mod
1	COC(=O)CCC(=O)Nc1ccc(S(=O)(=O)N2CCc3ccccc32)cc1	-6	-22	-0.9%	0.8	13%	0.4	2.5%
2	COc1cc(C(=O)c2c(C)c(CCC#N)n3ccccc23)cc(OC)c1OC	-13	-11	5.6%	-9.1	-28%	-0.3	.
3	COc1ccc(Cc2nc3ccc(C(=O)NCCc4ncccc4C)cc3o2)cc1OC	.	-6	1.9%	.	.	-0.5	1.3%
4	NC(=O)c1ccc(NC(=O)C2CCN(S(=O)(=O)Cc3ccccc3)CC2)cc1	.	15	-0.3%	.	.	-0.3	0.8%
5	COc1ccc2nc(SCc3cccc(C)c3)nc(C)c2c1	-37	-6	18%	4.8	?	3.5	25µM*
6	O=C(NCCN1CCC(n2c(=O)[nH]c3ccccc32)CC1)c1cccc2c1-c1ccccc1C2=O	.	.	-0.1%	.	.	-1.0	-9.4%
7	CCOc1ccc(N2CC(C(=O)Oc3ccccc3)CC2=O)cc1 (configuration not stated)	14	46	.	-0.5	10%	0.7	1.1%
8	Brc1ccc(-c2cn3c(n2)SCC3)cc1	2	32	-1.4%	-2.0	2%	1.8	.
9	Cc1ccc(S(=O)(=O)NNC(=O)C2COc3ccccc3O2)cc1 (configuration not stated)	-1	-22	-0.3%	1.7	16%	-0.2	3.9%
10	COCCn1c(C)cc(C(=O)COC(=O)c2ccc(Br)o2)c1C	29	-11	-1.8%	1.3	13%	-1.0	?
11	COc1ccccc1-c1c(C)nn2c(-c3ccccc3)cc(-c3ccccc3)nc12	.	6	0.8%	.	.	2.3	0.3%
12	O=C(Cn1c(=O)oc2ccccc21)Nc1ccccc1N1CCOCC1	3	2	2.5%	4.8	16%	2.3	1.2%
13	CCc1ccc(NC(=O)C2CCCN(c3nn4cc(-c5ccc(OC)cc5)nc4s3)C2)cc1 (configuration not stated)	.	13	0.2%	.	.	0.8	1.0%
14	Cn1nc(C(F)(F)F)c(-c2ccccc2)c1N	4	2	1.6%	14	-9%	0.6	.
15	COc1ccccc1CCC(=O)OCC(=O)Nc1ccc(S(N)(=O)=O)cc1	-28	-3	-0.1%	0.0	19%	-0.6	-1.3%
16	Cc1ccc(S(=O)(=O)Cc2ccc(C(=O)N3CCC(C)CC3)cc2)cc1	-9	11	-1.0%	.	5%	0.0	-1.0%
17	CC(CC(=O)OCC(=O)NC1CCS(=O)(=O)C1)c1ccccc1 (configuration not stated)	.	2	1.2%	.	.	-0.2	.
18	CC(C)CCNc1nc2c(-c3ccccc3)nnn2c2ccccc12	.	-4	0.1%	.	.	1.3	3.5%
19	Cc1cccc(/N=C/c2c(O)[nH]c3ccccc23)n1	-13	13	-6.5%[38.3 µM]	3.1	-8%	1.1	47%
20	CCOc1ccccc1NC(=O)Nc1cc(OC)ccc1OC	-9	-5	7.7%[38.3 µM]	2.8	27%	-0.6	0.8%
21	CCOc1ccc(C)cc1-n1nc2ccccc2n1	-12	1	2.1%	3.3	8%	0.9	-19%
22	CCN1CCC2(CC1)N=C(c1ccc(F)cc1)C(=S)N2C(=O)c1ccc(C(C)(C)C)cc1	?	-7	0.1%	20	?	0.9	-1.4%
23	COc1ccccc1NC(=O)C1C2C=CC(O2)C1C(=O)O (configuration not stated)	1	.	.	3.1	-28%	.	.
24	Fc1ccc(C2=CC(c3ccc(Br)o3)n3ncnc3N2)cc1 (configuration not stated)	-15	8	0.8%	?	-101%	?	32µM*
25	O=C(O)c1ccc(Cn2c(=S)[nH]c3cc(Cl)ccc3c2=O)cc1	2	4	0.7%	-2.9	9%	0.2	.
26	COC(=O)c1c(NC(=O)COC(=O)CCNS(=O)(=O)c2ccccc2)sc(C)c1C	5	21	-0.4%	.	4%	0.3	-3.1%
27	COc1ccc(C)cc1NC(=O)C1CCCN1S(=O)(=O)c1ccccc1F (configuration not stated)	-9	38	2.8%	.	.	-0.4	2.1%
28	CCOc1ccc(NC(=O)C(=O)NCCc2csc(-c3ccc(C(F)(F)F)cc3)n2)cc1	.	8	0.7%	.	.	2.8	-0.4%
29	Cc1cccc(C)c1NC(=O)CCN1C(=O)C2C3CCC(C3)C2C1=O (configuration not stated)	-2	1	-1.2%	-0.1	7%	-0.9	-1.1%
30	Cc1cc(C)c(OCCOCCN2CCN(C)CC2)c(Cl)c1	23	2	-1.6%	2.6	-30%	0.0	1.2%
31	Cc1nc2c(C#N)cnn2c2c1CCN(Cc1ccccc1)N2C	-1	-17	3.1%	-0.8	7%	1.2	.
32	CCCCCn1c(=O)[nH]c2cc(C(=O)NCc3ccc(F)cc3)ccc2c1=O	.	-15	1.0%	.	.	-0.2	-6.9%
33	COC(=O)CSc1nnc(-c2ccc(S(=O)(=O)N3CCCCC3)cc2)o1	-3	-1	-1.6%	3.5	18%	-0.3	1.1%
34	CCc1ccc(C(C(=O)NC2CCCCC2)N(C(=O)c2csnn2)C2CC2)cc1 (configuration not stated)	-30	10	10%	-5.7	14%	-0.3	.
35	Cc1cccc(N(C(=O)Cc2cccs2)C(C(=O)NCc2ccco2)c2ccncc2)c1 (configuration not stated)	6	-19	-3.0%	2.6	16%	2.6	.
36	COc1ccc(N2CC(NC(=O)c3ccc4ccccc4c3)CC2=O)cc1OC (configuration not stated)	-17	13	-0.5%	.	.	-0.3	.
37	Cc1cccc(Oc2ncnc3onc(C)c23)c1	0	5	-1.1%	3.9	7%	0.4	0.4%
38	CC(C)(C)c1ccc(C(=O)Nc2ccc(C(=O)OCc3cc(=O)n4ccsc4n3)cc2)cc1	.	26	1.6%	.	.	-0.2	3.2%
39	CC(C)CCn1c(N2CCN(c3cccc(Cl)c3)CC2)nc2c1c(=O)[nH]c(=O)n2C	-26	8	-0.1%	3.1	12%	0.1	1.6%
40	Oc1c(Br)cccc1/C=N/Nc1c(F)c(F)c(F)c(F)c1F	0	-4	40µM*	3.6	-7%	0.5	-7.8%
41	CCOC(=O)CNC(=O)C1c2ccccc2Oc2ccccc21	-3	-6	0.4%	-1.4	1%	-0.5	2.0%
42	CCC(=O)N1CCc2cc(Br)cc(S(=O)(=O)CCC(=O)N(CC)Cc3ccccc3)c21	.	-10	-1.2%	.	.	-1.1	0.1%
43	COc1ccccc1N1CCN(C2CCCN(Cc3c(F)cccc3F)C2)CC1 (configuration not stated)	-1	10	4.0%	1.6	16%	-0.3	1.2%
44	CC(=O)C(N=Nc1ccccc1)(Sc1nnc(-c2ccccc2)n1-c1ccccc1)C(=O)Nc1ccccc1 (configuration not stated)	-11	3	3.1%	1.3	14%	0.5	-8.4%
45	OC(COc1ccc2cc(Br)ccc2c1)Cn1ccnc1 (configuration not stated)	10	8	-1.6%	0.4	6%	0.9	0.4%
46	COc1cc(C2CC(c3ccccc3)=NN2c2ccccc2)ccc1OCC(=O)O (configuration not stated)	4	1	-2.6%	-1.9	-11%	0.5	.
47	COc1ccc(C(=O)N/C(=C\c2ccccc2)C(=O)NC(CCSC)C(=O)O)cc1 (configuration not stated)	3	-6	-0.3%	-0.1	23%	-0.4	-2.4%
48	COc1ccc(Cn2cc(CN(C)C3CN(Cc4cn(Cc5ccc(OC)cc5)nn4)S(=O)(=O)C3)nn2)cc1 (configuration not stated)	.	.	0.6%	.	.	-1.0	-0.1%
49	O=C(Nc1c(Br)cc2c(c1Br)Cc1cc([N+](=O)[O-])ccc1-2)C(Cl)Cl	.	24	-2.5%	.	.	-0.2	1.8%
50	Cc1ccc(-c2cc(C(=O)Nc3ccc(S(=O)(=O)N4CC(C)OC(C)C4)cc3)[nH]n2)c(O)c1 (configuration not stated)	2	-3	2.6%	0.3	0%	0.1	.
51	NC(=O)NC(=O)C(Nc1ccc(N2CCCCC2)cc1)c1ccccc1 (configuration not stated)	-12	-26	1.4%	0.4	-17%	2.5	.
52	CCN(CC(=O)Nc1c(F)cccc1F)C(=O)CNC(=O)c1ccc2ccccc2c1	7	17	2.4%	.	.	0.4	-8.7%
53	O=C(CS(=O)(=O)Cc1ccccc1)NCc1ccccc1Cl	-4	4	0.0%	.	13%	2.5	-3.2%
54	Cc1sc2nc(SCC(=O)NCc3cccs3)[nH]c(=O)c2c1C	4	-11	0.6%	-2.6	5%	5.0	-0.2%
55	CCc1ccccc1NC(=O)c1c(NC(=O)c2ccccc2)sc2c1CCCC2	.	-3	0.5%	.	.	-1.0	?
56	COc1ccccc1NC(=O)c1cc(S(=O)(=O)N2CCc3ccccc32)ccc1F	-19	-14&29	7.4%&5.2%	.	16%	-0.5&-0.7	-7.3%&-2.7%
57	CCN(CC)c1ccc(/C=C2\C=Cc3ccccc32)cc1	.	.	2.6%	.	.	0.3	2.1%
58	CNC(=O)OCc1cccc(COC(=O)NC)n1	2	-9	-0.9%	-1.8&-2.1	14%&11%	-0.4	0.8%
59	O=C(Cn1ccc2cc(S(=O)(=O)N3CCCCCC3)ccc21)NCCc1ccccc1Cl	.	1	-1.1%	.	.	2.5	-9.1%
60	CCOC(=O)Nc1ccc(S(=O)(=O)Nc2cc(C)on2)cc1	-3	-12	-1.0%[38.3 µM]	-0.4	-7%	-0.6	-1.1%
61	Cc1ccc(C(=O)c2oc3ccccc3c2NC(=O)c2cc(-c3ccccc3)on2)cc1	.	19	-0.3%	.	.	-0.6	-0.2%
